GALR2 ag: GALR2 receptor agonists, primary screen, cell-based; Galanin receptor type 2 (Homo sapiens), O43603; GALR2-expressing cells, agonist activation read-out; activation, %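 (tested at 5 µM)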; actives 0.48% (n = 140,000);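 active = above mean plus 3 SD of all compounds, about 5% in these data, not always enough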;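 also: 0% = vehicle buffer wells and 100% = reference agonist at full effect; tested in CHO reporter cells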
HSV augment: enhancers of HSV replication in host cells, fold increase, host cell viability | HSV replication augmentation in cells | maximum fold increase | actives 0.005% (n = 220,000);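 active = peak rise of 1.5-fold or more in the series; tested in PC3 cells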;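 also: first round at 10 µM; read as green reporter fluorescence; hits show the peak of a series up to 25 µM; 1 = signal of infected wells without compound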
PKD1 kinase inh: inhibitors of human PKD1 kinase, biochemical, fluorescence polarization | PKD1 kinase fluorescence polarization assay | inhibition, %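 (about 10 µM by stock and volumes)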 | actives 0.056% (n = 200,000);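 active = inhibition of 50% or more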;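 also: controls were vehicle for no effect and a reference inhibitor for full effect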
RGS16-Gao: modulators of RGS16 binding to Galphao, primary screen, biochemical, human proteins, multiplexed bead flow cytometry | Regulator of G-protein signaling 16 (Homo sapiens) + Guanine nucleotide-binding protein … | bead-based flow cytometry RGS16-Galphao binding, fluorescence; actives lie on both sides | binding response (% of control), % at 10 µM | actives 0.38% (n = 220,000);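 active = below 25% or above 175%, edge rows of some plates excepted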;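 also: Galphao activated by GDP with aluminum fluoride before binding; 100% = wells without compound and 0% = beads without RGS; some results beyond the cut were filed as inactive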
Target sequence (O15492 whole entry, looked up): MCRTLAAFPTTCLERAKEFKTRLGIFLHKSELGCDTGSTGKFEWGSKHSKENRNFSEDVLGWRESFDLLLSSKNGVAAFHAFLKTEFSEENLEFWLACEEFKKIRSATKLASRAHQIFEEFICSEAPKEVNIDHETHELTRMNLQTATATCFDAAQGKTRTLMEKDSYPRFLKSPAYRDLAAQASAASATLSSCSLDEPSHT
Target sequence (P09471 whole entry, looked up): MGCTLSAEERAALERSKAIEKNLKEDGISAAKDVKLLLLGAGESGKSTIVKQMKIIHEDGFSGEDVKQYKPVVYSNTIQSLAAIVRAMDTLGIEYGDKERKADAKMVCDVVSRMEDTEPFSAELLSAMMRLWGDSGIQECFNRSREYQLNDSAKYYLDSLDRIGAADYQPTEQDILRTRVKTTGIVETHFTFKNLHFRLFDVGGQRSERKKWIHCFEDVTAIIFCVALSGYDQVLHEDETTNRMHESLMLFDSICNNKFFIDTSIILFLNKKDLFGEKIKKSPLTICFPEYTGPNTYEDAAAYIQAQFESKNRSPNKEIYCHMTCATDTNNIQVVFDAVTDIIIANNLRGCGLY
Insulin prom inh: inhibitors of insulin promoter-driven GFP, primary screen, imaging, TRM-6 cells (human fetal islet line), eGFP reporter, cell count | reporter expression induced with tamoxifen | inhibition, % at 2 µM | actives 0.9% (n = 130,000);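 active = inhibition above the mean plus 3 SD, with well images judged a real hit on visual review, cut at about 60% in these data, passing the limit was not always enough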
Insulin prom inh cell count: second read-out of Insulin prom inh, no call of its own (marks repeat the call); normalized cell count, %; measured here: cell count, toxicity; reference of the scale not given here;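 cells exposed to compound for 48 h; stained nuclei by imaging scaled within each plate; lower means fewer cells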
HSV augment primary fold: further read-out of HSV augment, marked with its call; fold increase; compound at 10 µM; measured here: primary screen fold increase 10 uM; tested in PC3 cells;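 GFP signal in the first replicate; 1 = infected wells without compound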
An asterisk follows results filed as active; i = inactive; nt = no result given; & = joins results of further samples.

SMILES	GALR2 ag	HSV augment	HSV augment primary fold	PKD1 kinase inh	RGS16-Gao	Insulin prom inh	Insulin prom inh cell count
O=C(N(Cc1ccccc1)c1ccccn1)C12CC3CC(CC(C3)C1)C2	-1.5	i	1.1	-1	98	-8	82
Cc1nc(S(=O)(=O)c2ccc(Br)cc2)nc2c1CCC2	nt	i	0.97	-1	98	nt	nt
O=C(COC(=O)/C=C/c1nc2ccccc2s1)Nc1cccc(Cl)c1Cl	-0.2	i	0.9	-4	106	-32	73
COC(=O)c1ccc(OC(=O)c2ccc(OC)c(OC)c2)c(OC)c1	-0.9	i	0.96	-12	107	-18	145
CNC(=O)c1ccsc1NC(=O)CCS(=O)(=O)c1ccccc1	nt	i	1	0	114	nt	nt
O=C(Nc1ccccc1N1CCOCC1)c1cc(-c2ccncc2)nc2ccccc12	nt	i	0.86	5	96	-236	91
CCOC(=O)c1sc(NC(=O)CSc2nccc(C)n2)nc1C	nt	i	0.97	-1	103	7	126
COC(=O)[C@@H]1C[C@@]2(O)[C@H](O)[C@H](O)[C@H](O)C[C@H]2N1Cc1ccc(-c2ccccc2)cc1	nt	i	0.68	nt	100	nt	nt
O=C(Nc1ccc2c(c1)OCO2)C1CCN(C(=O)CSc2ncnc3ccccc23)CC1	-0.8	i	0.76	-18	nt	15	86
Cc1c(OCC(F)(F)F)ccnc1CS(=O)c1nc2ccccc2[nH]1 (stereo not given)	-1.3	i	0.87	3	97&107	-36	103
Cc1ccc(NC(=O)C(CC(C)C)NC(N)=O)cc1Cl (stereo not given)	0.0	i	1.3	2	124	nt	nt
CC(=O)c1c(C)[nH]c(C(=O)Nc2cc(C)ccc2C)c1C	-2.0	i	0.99	-11	73	nt	nt
Cc1ccccc1-c1cc2c(nn1)-c1ccccc1C2=O	-0.1	i	0.87	-4	97	46	80
O=C1CCC(=O)N1c1ccc(-c2nc3sc4c(c3c(=O)o2)CCC4)cc1	nt	i	0.91	nt	96	nt	nt
Cc1sc2nc(COC(=O)c3ccc(Cl)c(N)c3)[nH]c(=O)c2c1C	nt	i	0.71	nt	104	nt	nt
Cc1cccc(NC(=S)N2CCC(c3nc4ccccc4o3)CC2)c1C	-2.9	i	0.85	9	38	nt	nt
COC(=O)Cn1cnc2c(C#N)c3n(c2c1=O)CCCCC3	0.3	i	0.95	-1	93	19	109
CC(=O)NCCOC(=O)Nc1ccncc1	-2.6	i	1.1	-6	104	-30	69
Cc1ccc(C)c(S(=O)(=O)N/N=C2/CCCc3ccccc32)c1	-1.3	i	0.74	2	93	16	132
CC1CCN(c2c(NCc3ccc(C(=O)NCc4ccccc4)cc3)c(=O)c2=O)CC1	nt	i	1	nt	102	nt	nt
CCn1c(COc2ccccc2)nnc1SCC(=O)NC1CCCCC1	-0.3	i	1	10	101	-14	132
C=C1CCN([C@@H](C)C(=O)NCc2ccc(OC)cc2)S(=O)(=O)c2ccccc21	nt	i	0.92	nt	98	nt	nt
CCOC(=O)CN(C(=O)CNC(=O)c1cccs1)C(C(=O)NC1CCCC1)c1cccnc1 (stereo not given)	-1.5	i	1	1	105	nt	nt
CCOC(=O)C1CCCN(C(=O)c2cc3c(=O)n(C)c4ccccc4c3n2C)C1 (stereo not given)	-0.6	i	0.86	-4	102	nt	nt
COc1ccc(-c2csc3nc(-c4cccnc4)nc(Cl)c23)cc1OC	-1.4	i	0.76	9	91	-10	91
Cc1ccc2c(c1)C(=O)N(CCCCO)C2=O	-2.0	i	1	18	108	55	125
O=C(/C=C/c1ccc(Cl)c(Cl)c1)N1CCc2ccccc21	-0.1	i	1.1	-9	81	nt	nt
COc1ccc(NC(=O)C(CCSC)N2C(=O)c3ccccc3C2=O)cc1 (stereo not given)	-4.2	i	0.87	4	82	39	47
COC(=O)c1sccc1N/N=C/c1cccc(OC)c1O	-0.5	i	0.94	8	108	-31	102
O=C1CCC(=O)N1c1cccc(OS(=O)(=O)c2ccccc2)c1	-1.8	i	0.95	1	108	nt	nt
O=C(Cn1nnc2ccccc21)NCc1ccccc1	-1.9	i	0.92	-4	102	-31	70
Cc1cccc(N2CCCC2=Nc2ccc(Br)cc2C#N)c1	-1.3	i	0.84	1	103	nt	nt
CS(=O)(=O)N1CCN=C1SCc1ccc([N+](=O)[O-])cc1	nt	i	0.91	10	101	-85	79
CCOC(=O)c1nn(-c2ccc(C)cc2)cc1O	-0.3	i	0.94	1	104	13	100
CC1(C)CC(=O)c2c(nn(-c3ccccc3)c2-c2ccncc2)C1	-4.2	i	0.87	-6	110	-10	94
Cc1cccc(OCCNC(=O)c2cccc(Oc3ccc(C(F)(F)F)cc3[N+](=O)[O-])c2)c1	-2.4	i	0.93	-7	98	-47	108
CCOc1ccccc1NC(=O)C(OC(=O)C1CC1)c1ccccc1 (stereo not given)	nt	i	1.1	nt	90	nt	nt
Cc1nc(-c2ccc(S(=O)(=O)N3CCN(C4c5ccccc5-c5ccccc54)CC3)s2)cs1	nt	i	0.97	nt	99	nt	nt
CCOc1ccc(NC(=O)CCCCn2c(=O)[nH]c3ccsc3c2=O)cc1	nt	i	0.86	-2	111	36	166
C/C(N)=C(/C#N)C(=O)COC(=O)CNS(=O)(=O)c1c(F)cccc1F	nt	i	0.82	0	107	-20	88

Profiles from above. Screens in order: GALR2 ag, HSV augment, HSV augment primary fold, PKD1 kinase inh, RGS16-Gao, Insulin prom inh, Insulin prom inh cell count
`CC1(C)CC(=O)c2c(nn(-c3ccccc3)c2-c2ccncc2)C1` as listed: -4.2, i, 0.87, -6, 110, -10, 94
`Cc1nc(S(=O)(=O)c2ccc(Br)cc2)nc2c1CCC2` as listed: nt, i, 0.97, -1, 98, nt, nt
`O=C(Nc1ccc2c(c1)OCO2)C1CCN(C(=O)CSc2ncnc3ccccc23)CC1` as listed: -0.8, i, 0.76, -18, nt, 15, 86

Continuation.
SMILES	GALR2 ag	HSV augment	HSV augment primary fold	PKD1 kinase inh	RGS16-Gao	Insulin prom inh	Insulin prom inh cell count
O=C(NC(=S)Nc1nc2c(s1)CSc1ccccc1-2)c1ccccc1	-1.1	i	0.99	6	97	25	79
c1ccc(-c2ccc(C3=Nn4c(nnc4-c4cccs4)SC3)cc2)cc1	nt	i	0.85	nt	97	nt	nt
O=c1cc(-c2ccc(F)cc2F)[nH]c2ccccc12	-1.5	i	1.1	-1	121	52	83
COCCn1c(/C=C/c2ccccc2)nc2ccccc21	nt	i	0.91	-3	104	nt	nt
COc1ccccc1NC(=O)NS(=O)(=O)c1ccc(C)cc1	-3.2	i	0.72	-8	114	63	72
O=C(CC(NC(=O)c1ccccc1Cl)c1ccccc1)NCCc1ccc(Cl)cc1 (stereo not given)	1.1	i	1.1	-3	96	nt	nt
Cc1ccc2nc(-c3ccc(NC(=O)CN(C)S(=O)(=O)c4ccccc4)cc3)sc2c1	nt	i	0.79	-4	102	nt	nt
CC(CCc1ccccc1)NC(=O)CN1CCSc2ccccc21 (stereo not given)	nt	i	1	-2	102	nt	nt
CCOc1ccc(C(=O)N2CCN(Cc3ccccc3)CC2)cc1	-0.3	i	0.79	4	102	-18	77

6 structures out of the list, arranged by length of the SMILES, largest number first.
SMILES	GALR2 ag	HSV augment	HSV augment primary fold	PKD1 kinase inh	RGS16-Gao	Insulin prom inh	Insulin prom inh cell count
Cc1ccc2nc(-c3ccc(NC(=O)CN(C)S(=O)(=O)c4ccccc4)cc3)sc2c1	nt	i	0.79	-4	102	nt	nt
O=C(CC(NC(=O)c1ccccc1Cl)c1ccccc1)NCCc1ccc(Cl)cc1 (stereo not given)	1.1	i	1.1	-3	96	nt	nt
c1ccc(-c2ccc(C3=Nn4c(nnc4-c4cccs4)SC3)cc2)cc1	nt	i	0.85	nt	97	nt	nt
COc1ccccc1NC(=O)NS(=O)(=O)c1ccc(C)cc1	-3.2	i	0.72	-8	114	63	72
O=c1cc(-c2ccc(F)cc2F)[nH]c2ccccc12	-1.5	i	1.1	-1	121	52	83
COCCn1c(/C=C/c2ccccc2)nc2ccccc21	nt	i	0.91	-3	104	nt	nt

Source: PubChem (several laboratories)
